Screens deposited in PubChem BioAssay by National Center for Advancing Translational Sciences (NCATS).
AmpC nodet inh: inhibitors of E. coli AmpC beta-lactamase without detergent; Potency, µM (series often up to 28.7 µM), without a hit: at the highest dose activity change, negative = inhibition; 71,000 compounds, 1.8% hits; AID 585; AmpC nitrocefin hydrolysis, absorbance 480 nm, no detergent; potencies from a single point are estimates; P00811; active = falling curve, for most hits resting on a single point; inconclusive = weak or doubtful change; inactive = flat or rising curve; note: % of control where 0% means no effect; about half of the hits show no inhibition at the top dose; a quarter of the inactives give rising signals
Target sequence (P00811 whole entry, looked up): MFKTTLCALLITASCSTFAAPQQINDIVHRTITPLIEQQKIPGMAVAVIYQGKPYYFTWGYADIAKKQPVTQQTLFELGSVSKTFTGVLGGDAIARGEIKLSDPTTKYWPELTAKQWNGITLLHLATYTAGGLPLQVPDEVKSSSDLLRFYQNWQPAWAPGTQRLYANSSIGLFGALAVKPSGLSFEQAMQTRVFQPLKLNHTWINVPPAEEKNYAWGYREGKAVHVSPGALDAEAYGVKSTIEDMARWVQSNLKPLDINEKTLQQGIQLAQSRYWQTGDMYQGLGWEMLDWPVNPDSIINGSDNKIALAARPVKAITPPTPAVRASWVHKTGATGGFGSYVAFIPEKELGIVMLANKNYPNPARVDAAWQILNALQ
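Enzyme, pH 7.0 phosphate. Compound titrations were pre-incubated with AmpC for 15 min at room temperature before nitrocefin (stock 800 uM) addition; product formation was recorded at 480 nm every 20 s for 4 min.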
* hit, by the source's call; ? = inconclusive; [ ] = another dose, or the depositor's remark. Potency is the fitted concentration of half-maximal effect.

SMILES	AmpC nodet inh
COCCNC(=O)C1(C)C=CCN1C(C)=O (centres undefined)	-13%
CCOC(=O)C1CCN(C(=O)CNC(=O)OC(C)(C)C)CC1	12%
CCCOC(=O)/C(C(N)=NCc1ccccc1)=C(\O)OCCC	6%
CCCN(CC1CC1)C(=O)Nc1ccccc1C	9%
COC(=O)COc1cccc(NS(=O)(=O)c2ccc(NC(C)=O)cc2)c1	2%
Cc1cc(C2=CC(C)(c3cc(C)oc3C)Nc3nc(C(F)(F)F)nn32)c(C)o1 (centres undefined)	5%
COc1cc(C2c3c(oc4ccc(C)cc4c3=O)C(=O)N2c2cc(C)ccn2)cc(OC)c1OC (centres undefined)	94%
COC(=O)c1cc2occc2n1CC(=O)N(C)C1CCCCC1	31%
Cc1ccc(CS(=O)(=O)CCC(=O)NCCN2CCCC2)cc1	-5%
Cn1c(=O)c2[nH]c(CCCc3ccc([N+](=O)[O-])cc3)nc2n(C)c1=O	-8%[5.75 µM]
O=C(Nc1ccc2c(c1)OCO2)C1CCCN1C(=O)Nc1ccccc1F (centres undefined)	-5%
CCC(C)n1cnc2c(c1=O)c1nc3ccccc3nc1n2-c1ccc2c(c1)OCCO2 (centres undefined)	57%
CCOC(=O)CC(=O)CSc1nc2c(sc(=S)n2-c2ccccc2)c(=O)[nH]1	-12%
O=C(NCc1cccs1)Nc1ccc2c(c1)OCO2	-5%
CCOC(=O)c1cc2ccc(OC)c(OC)c2c(=O)s1	15%
O=C(COc1ccc(Cl)cc1)NCc1nnc(SCC(=O)c2ccccc2)o1	28%
CN(Cc1ccccc1)C(=O)N[C@@H](Cc1ccccc1)C(=O)O	0%
CCCc1nnc(NC(=O)CCC(=O)N2CCN(CCn3c(C)ccc3C)CC2)s1	127%
CCc1c(C(=O)NCc2ccc3c(c2)OCO3)[nH]c(C)c1C(C)=O	-15%
Cc1ccc(N2CCN(C(=O)c3ccccc3F)CC2)c(C)c1	73%

Ordered by formula weight (lowest first): part of the list above.
SMILES	AmpC nodet inh
CCCN(CC1CC1)C(=O)Nc1ccccc1C	9%
O=C(NCc1cccs1)Nc1ccc2c(c1)OCO2	-5%
CN(Cc1ccccc1)C(=O)N[C@@H](Cc1ccccc1)C(=O)O	0%
Cn1c(=O)c2[nH]c(CCCc3ccc([N+](=O)[O-])cc3)nc2n(C)c1=O	-8%[5.75 µM]
COC(=O)COc1cccc(NS(=O)(=O)c2ccc(NC(C)=O)cc2)c1	2%
CCOC(=O)CC(=O)CSc1nc2c(sc(=S)n2-c2ccccc2)c(=O)[nH]1	-12%

Carrying on.
SMILES	AmpC nodet inh
CCOC(=O)Cc1csc(NC(=O)CC)n1	-6%
COC(=O)c1ccc(C2C(C(C)=O)=C(O)C(=O)N2CCO)cc1 (centres undefined)	-7%
CCCC[C@@H]1C[C@H]1C(NC(=O)c1ccco1)c1ccc(Cl)cc1 (some centres undefined)	10µM*[single pt active]
CCOC(=O)c1[nH]c(C)c(C(=O)Nc2ccccc2C)c1C	8%
CCN(CC)C(=O)CC(c1ccc(F)cc1)c1ccco1 (centres undefined)	81%
COc1ccc(N2CCN(CCNC(=O)c3ccc(NC(=O)C4CCCO4)cc3)CC2)cc1 (centres undefined)	20%
Cc1nn(C)c(C)c1S(=O)(=O)N1CCCC(C(=O)NC2CCCCC2)C1 (centres undefined)	14%
COc1ccc(CC(=O)N2CCNC2=O)cc1	-4%
CC[C@H]1OC(=O)[C@H](C)[C@@H](O[C@H]2C[C@@](C)(OC)[C@@H](O)[C@H](C)O2)[C@H](C)[C@@H](O[C@@H]2O[C@H](C)C[C@H](N(C)C)[C@H]2O)[C@](C)(O)C[C@@H](C)CN(C)[C@H](C)[C@@H](O)[C@]1(C)O	11%
O=C(c1ccc(F)cc1)N1CCCCC(Sc2nnc3ccccn23)C1=O (centres undefined)	19%
CCn1c(SCc2nc3ccccc3c(=O)[nH]2)nc2ccccc2c1=O	31%
Cc1cc(SCC#N)n2nc(C)c(-c3ccccc3)c2n1	31%
CC(C)Cn1cnc2c(Sc3c([N+](=O)[O-])ncn3C)nc(N)nc21	-10%[5.75 µM]
CCOc1nc2c(c(=O)n(C)c(=O)n2C)n1Cc1ccccc1Cl	64%
COc1ccc(C2NCCC3(O)CCCCC23)c(OC)c1OC (centres undefined)	-13%
Cc1ccc(SCC(=O)NCCCN2CCOCC2)cc1	-4%
O=S1(=O)C=C(SCCN2CCCCC2)c2ccccc21	-5%
Cc1nc2nc(SCC(N)=O)[nH]c2cc1Br	-21%
OC(COc1ccc(OCc2ccccc2)cc1)CN1CCOCC1 (centres undefined)	89%
COc1cccc(Cn2c(=O)c(CCc3ccccc3)nc3cnc(N4CCN(C)CC4)nc32)c1	131%
CSc1nc(C)c(C(=O)Nc2ccccc2)c(C)c1C#N	-9%
c1ccncc1	-3%
CCOC(=O)N1CCN(C(=O)c2ccc3nc4ccc(Cl)cc4c(=O)n3c2)CC1	120%
CCOC(=O)Cn1ncc2c(=O)oc3ccccc3c21	-2%
COCCNC(=O)c1csc2c1CCCC2	2%
CCc1ccc2[nH]c(=O)c(CN(CCN(CC)CC)C(=O)Nc3ccccc3OC)cc2c1	66%
c1ccc(-c2noc(-c3ccco3)n2)nc1	-8%
COc1ccc(-n2c(Cc3cccn3C)nnc2SCC(=O)NCCc2ccccc2)cc1	89%
CC(C)n1nnnc1SCC(=O)NCc1ccco1	24%
N#CCCn1c(=O)cnc2cnc(Nc3ccccc3)nc21	5%
Cc1cc(NS(=O)(=O)c2ccccc2)no1	4µM*[single pt active]
COCCNc1ncncc1-c1c(C)noc1C	1%
CCOc1ccccc1NC(=O)COc1cccc(-n2cnnn2)c1	35%
FC(F)(F)c1ccccc1-c1nc(N2CCOCC2)c2ccccc2n1	42%
COc1ccc(C(=O)NCCn2cc(SCC(=O)NCc3ccco3)c3ccccc32)cc1	2%
CCCCn1c(SCc2ccc(C(=O)OC)o2)nc2cc(S(N)(=O)=O)ccc21	-1%
COc1ccc(CCN2CCC(Nc3nc4ccccc4n3Cc3ccc(F)cc3)CC2)cc1	-9%[12.8 µM]
CCNc1nc(SC(C(C)=O)C(C)=O)nc(N(C)C)n1	1%
COCCCn1c(=O)c2ccccc2c2ccccc2c1=O	20%
CCN(CC)S(=O)(=O)c1ccc(Nc2cc(C)nc3ncnn23)cc1	18%

Copied from the results shown (4 entries):
SMILES	AmpC nodet inh
COc1ccc(CCN2CCC(Nc3nc4ccccc4n3Cc3ccc(F)cc3)CC2)cc1	-9%[12.8 µM]
CCNc1nc(SC(C(C)=O)C(C)=O)nc(N(C)C)n1	1%
COCCCn1c(=O)c2ccccc2c2ccccc2c1=O	20%
CCN(CC)S(=O)(=O)c1ccc(Nc2cc(C)nc3ncnn23)cc1	18%

Going on with the list.
SMILES	AmpC nodet inh
Cn1c(Cc2csc(N)n2)nnc1SC/C=C/c1ccccc1	9%
CN1CCN(C(=O)C2(NC(=O)Nc3cccc(F)c3)CCCCC2)CC1	-15%
CC1=CC(C)(C)Nc2ccc(CSc3ccccc3)cc21	-13%[5.75 µM]
Cc1nc2ccc(NC(=O)C3CCN(S(=O)(=O)c4cccs4)CC3)cc2s1	26%
CCn1c(COc2ccccc2C)nnc1SCC(=O)N1CCCCC1	64%
CCCCCC(=O)N1CCN(CCN=CC2=C(O)CC(c3ccc(OC)c(OC)c3)CC2=O)CC1 (centres undefined)	107%
CCOC(=O)C1CCN(S(=O)(=O)c2ccc(-n3cnnn3)c(C)c2)CC1	16%
Cc1ccc(C(=O)NCCCNCCCN(C)C)cn1	2%
O=C(Nc1ccc(F)cc1)C1CCCN(S(=O)(=O)c2cccc3cccnc23)C1 (centres undefined)	6%
CC(C)CN1CC[C@@]2(CCCN(C(=O)c3cc(C(F)(F)F)cc(C(F)(F)F)c3)C2)C1	64%
Cc1cc(NC(=O)CCC(=O)N(CC(=O)NC2CCCC2)Cc2ccccc2Cl)no1	48%
O=C(Nc1cccc(C(F)(F)F)c1)c1cc(S(=O)(=O)N2CCCCC2)ccc1N1CCOCC1	80%
C[C@@H](C(=O)OC1C[C@H]2CC[C@@H](C1)N2C)c1ccc(Br)cc1 (some centres undefined)	26%
CC1CN(c2nc3c(c(=O)n(Cc4ccc(Cl)cc4)c(=O)n3C)n2C)CC(C)O1 (centres undefined)	105%
COC(=O)C1=C(C)Nc2nnnn2C1c1cc(OC)ccc1OC (centres undefined)	14%
CC(C)NC(=O)c1cc(C(=O)c2cc(Cl)ccc2O)coc1=N	-19%
Cn1nc(CC(=O)N2CCN(c3ccccc3)CC2)c2ccccc2c1=O	23%
Cc1sc(NC(=O)CSc2nc(N)n(CC(=O)c3ccccc3)n2)c(C#N)c1C	?
COc1ccc(S(=O)(=O)N2CCN(c3ccc4nnc(-c5ccc(F)cc5)n4n3)CC2)cc1	80%
COc1ccc(NC(=O)CN2CCN(c3ccccc3F)CC2)cc1	20%

In the list so far, eight contain a furan ring, fused or not:
SMILES	AmpC nodet inh
Cc1cc(C2=CC(C)(c3cc(C)oc3C)Nc3nc(C(F)(F)F)nn32)c(C)o1 (centres undefined)	5%
COC(=O)c1cc2occc2n1CC(=O)N(C)C1CCCCC1	31%
CCCC[C@@H]1C[C@H]1C(NC(=O)c1ccco1)c1ccc(Cl)cc1 (some centres undefined)	10µM*[single pt active]
CCN(CC)C(=O)CC(c1ccc(F)cc1)c1ccco1 (centres undefined)	81%
c1ccc(-c2noc(-c3ccco3)n2)nc1	-8%
CC(C)n1nnnc1SCC(=O)NCc1ccco1	24%
COc1ccc(C(=O)NCCn2cc(SCC(=O)NCc3ccco3)c3ccccc32)cc1	2%
CCCCn1c(SCc2ccc(C(=O)OC)o2)nc2cc(S(N)(=O)=O)ccc21	-1%

New compounds follow:
SMILES	AmpC nodet inh
COc1ccc(CCNC(=O)NC(C(F)(F)F)C(F)(F)F)cc1OC	3%
CO[C@H]1/C=C/O[C@@]2(C)Oc3c(C)c(O)c4c(O)c(c(/C=N/N5CCN(C)CC5)c(O)c4c3C2=O)NC(=O)/C(C)=C\C=C\[C@H](C)[C@H](O)[C@@H](C)[C@@H](O)[C@@H](C)[C@H](OC(C)=O)[C@@H]1C	135%
CCCCNC(=O)C1CCCN1C(=O)Nc1cccc(OC)c1 (centres undefined)	-4%
CN1[C@@H]2CC[C@H]1CC(OC1c3ccccc3CCc3ccccc31)C2 (some centres undefined)	28%[12.8 µM]
CN(C)c1ccc2c(O)cc(=O)n(C)c2c1	-3%
O=C(O)Cn1c(SCCOc2ccccc2F)nc2ccccc21	-6%
COC(=O)CCC(=O)N1CCc2cc(S(=O)(=O)N3CCN(c4ccccc4Cl)CC3)ccc21	132%
CCOC(=O)Oc1c(OC)cc(C(=O)O[C@H]2C[C@H]3CN4CCc5c([nH]c6cc(OC)ccc56)[C@@H]4C[C@H]3[C@@H](C(=O)OC)[C@@H]2OC)cc1OC	94%[12.8 µM]
CCOC(=O)c1cnc2ccccc2c1NCCO	3%
COc1ccc(OC)c(C2c3c(oc4ccccc4c3=O)C(=O)N2CCCN(C)C)c1 (centres undefined)	18%
Cc1ccc(-c2nc(CS(=O)(=O)CC(=O)N3CCc4ccccc4C3)c(C)o2)cc1	48%
O=C1CC(C(=O)NCc2ccccc2)N=C(N2CCCCC2)N1 (centres undefined)	-11%
CCOc1ccc(C(C)=O)cc1CSc1nnc(-c2cccs2)n1CC1CCCO1 (centres undefined)	65%
Cc1cc(O)ccc1Cl	-7%
C=CCSc1nc(C)c(CC(=O)OCCCC)c(=O)[nH]1	-7%
O=C(Cc1cccs1)NCc1ccc(F)cc1	-19%
O=C(COC(=O)c1cncc(Br)c1)NCC1CCCO1 (centres undefined)	-4%
O=C(C1=COCCO1)N1CCN(S(=O)(=O)c2cccc(Cl)c2Cl)CC1	35%
Cc1c(C)n(Cc2ccccc2)c2ncnc(N)c12	9%
CCn1c(SCC(=O)Nc2ccccc2)nnc1-c1ccc(S(=O)(=O)N2CCOCC2)cc1	92%
CC1(C)CC(=O)C(C=NCCN2CCN(C(=O)c3ccccc3)CC2)=C(O)C1	18%
CCNc1ncc2nc(C)c(=O)n(CCc3ccccc3)c2n1	12%
COc1cccc(C(=O)NCC2CCN(c3ccc(S(=O)(=O)N4CCOCC4)cc3)CC2)c1	79%
O=S(=O)(c1ccc(N2CCN(c3ccc(F)cc3)CC2)cc1)N1CCCC1	3%
COC(=O)C(C)Sc1ccc2nnc(-c3cccc(F)c3)n2n1 (centres undefined)	40%
c1ccc(-c2cnn3nnnc3n2)cc1	-6%
CCCC(=O)NCCc1cc2c(C)ccc(C)c2[nH]c1=O	4%
CN(C)CC(C)(C)CN1c2ccccc2Sc2ccccc21	23%[5.75 µM]
Cc1ccc(C)c(-n2c(N)c(C(N)=O)sc2=S)c1	12%
CCn1cc(CNC(=O)C2C3CCC(C3)C2C(=O)O)cn1 (centres undefined)	0%
Cc1ccc2cc(CN(CCN3CCOCC3)Cc3nnnn3Cc3ccco3)c(=O)[nH]c2c1C	83%
COc1ccc(-n2c(C)cc(C(=O)CSc3nn4c(=O)c(C(C)(C)C)nnc4s3)c2C)cc1	15%
CCCc1noc(-c2ccc(-c3ccccc3)cc2)n1	-14%
CCCCCC1=C2CNC(C)(C(=O)OC)C=C2C(C)C1=O (centres undefined)	36%
CCn1c(Cc2ccccc2)nnc1SCC(=O)Nc1nc2ccccc2s1	6%
Cc1cc(C)nc(N2CCC(C(=O)NCC3CCCCC3)CC2)n1	11%
N#Cc1c(-c2ccccc2)cc(-c2ccco2)c(C#N)c1N	6.3µM*
CCOC(=O)CCCNC(=O)COc1ccccc1C#N	0%
O=C(OCc1ccc2c(c1)OCO2)c1ccc(S(=O)(=O)N2CCCC2)cc1	10%
O=S(=O)(Nc1ccc(N2CCOCC2)nn1)c1ccccc1	8%
Cc1nc2cc(C(=O)N3CCC4(CC3)OCCO4)ccc2n1-c1cccc(F)c1	64%
Cc1ccc(-n2c(=O)cc(NCc3cccnc3)[nH]c2=O)cc1	2%

Not all compounds are listed (hit frequency here may not be typical).
